# Anaer choline gr: growth inhibitors of anaerobic choline-fed gram-negatives, minimal medium, absorbance; Gram-negative bacterium anaerobic choline minimal medium; stronger effect = lower value; many inactives read as strong as hits in the columns shown; calls only; actives 0.2% (n = 55,000); AID 1963822, 2024;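 active = growth z-score on choline under -2 at 7 or 20 h with little or no fall on glycerol, limits in tiers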;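 note: stock transfer was 300 nL into about 50 µL; the organism is E. coli; final concentration not given here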
# Anaer choline gr early: also measured in Anaer choline gr; calls as there; z-score; measured here: choline growth z-score, timepoint 1;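 score of optical density at 7 h as mean of two plates; lower means less growth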
# * hit, by the source's call; i = inactive; + = active, no number; & = joins results of further samples. The list is partial; count on the stated rates, not on these rows.
cpd | canonical_smiles | Anaer choline gr | Anaer choline gr early
1 | COc1ccc(-n2nc(C(=O)N3CCN(c4ccccc4OC)CC3)c(=O)n(C)c2=O)cc1 | i | 0.26
2 | Cc1ccc(-c2ccc(N3CCC(C(=O)NC4CC4)CC3)nn2)cc1 | i | -1.69
3 | Cc1cccn2c(=O)cc(CN(Cc3ccc(C(C)C)cc3)CC(C)C)nc12 | i | 0.57
4 | Cc1ccc(C)c(S(=O)(=O)Nc2ccc3nnc(-c4cccc(Br)c4)n3n2)c1 | i | 0.41
5 | CCCCC(C)(C)[C@H](O)/C=C/[C@H]1[C@H](O)CC(=O)[C@@H]1CCCCCCC(=O)O | i | 0.19
6 | CCc1ccc(-c2ccc(=O)[nH]n2)cc1S(=O)(=O)Nc1cc(C)cc(C)c1 | i | -0.08
7 | N=c1ccn2c(n1)O[C@H]1[C@H](O)[C@@H](CO)O[C@H]12 | i | -0.25
8 | O=C(NC1CCCCC1)C1CCN(c2ccc(-c3ccccc3)nn2)CC1 | i | 0.2

# Later entries
cpd | canonical_smiles | Anaer choline gr | Anaer choline gr early
9 | COc1cccc(CNC(=O)CCC2=NS(=O)(=O)c3ccccc3N2)c1 | i | 0.49
10 | COc1ccc2c(c1)c(NC(C)=O)c1n2CC(C)(C(=O)NC2CCCC2)N(CCC(C)C)C1=O (stereo unspecified) | i | -0.09
11 | Cc1ccc(NC(=O)c2ccc(=O)n(CC(=O)NCC3CCCO3)n2)cc1 (stereo unspecified) | i | 0.33
12 | CCCNC(=O)c1cc2n(n1)CCCC2 | i | -0.14
13 | COCCNC(=O)CN1C(=O)CCn2nc(-c3cn(C)c4ccccc34)cc21 | i | -0.19
14 | CCOC(=O)c1c(C)[nH]c(C)c1S(=O)(=O)N(CCc1ccncc1)CC1CCCO1 (stereo unspecified) | i | 1.02
15 | O=C(Nc1cccc(Cl)c1)C1CC2CSCN2C12C(=O)Nc1ccccc12 (stereo unspecified) | i | 0.68
16 | CCN1C(=O)c2cc(C(=O)NC3CCCC3)nn2CC1(C)C(=O)NC1CCCC1 (stereo unspecified) | i | 0.57

# Following part:
cpd | canonical_smiles | Anaer choline gr | Anaer choline gr early
17 | O=C(NCc1ccc(F)cc1)NCC(c1ccc(F)cc1)c1c[nH]c2ccccc12 (stereo unspecified) | i | 0.82
18 | Cc1ccc(NC(=O)Nc2nnc(CC(=O)NCc3ccccc3)s2)cc1Cl | i | 0.58
19 | Cc1ccc(Cn2c3ccccc3c3cnn(CC(=O)NCc4ccccc4)c(=O)c32)cc1 | i | 1.02
20 | O=C(NC1CC(=O)N(C2CCCC2)C1)c1ccc(Br)o1 (stereo unspecified) | i | -0.85
21 | CC(C)c1noc(-c2ccccc2OCC(=O)NC(C)c2ccccc2)n1 (stereo unspecified) | i | 1.51
22 | COc1ccc(NC(=O)C2CCN(c3ncnc4c3sc3nc(C)cc(-c5ccccc5)c34)CC2)cc1OC | i | -0.03
23 | CCOc1ccc(C(=O)NCCOc2ccc(-c3ccc(C)cc3)nn2)cc1 | i | 0.92
24 | CNS(=O)(=O)c1ccc(-c2cc(C(F)(F)F)on2)o1 | i | -0.24

# More compounds follow:
cpd | canonical_smiles | Anaer choline gr | Anaer choline gr early
25 | COc1ccc(NC(=O)c2ccc3ncc4c(=O)n(-c5ccc(F)cc5)[nH]c4c3c2)cc1OC | i | -0.28
26 | O=C(Nc1sc2c(c1C(=O)NCC1CCCO1)CCCC2)c1cc(=O)c2ccccc2o1 (stereo unspecified) | i | 0.49
27 | Cc1csc(NC(=O)C(C)NS(=O)(=O)c2ccc3c(c2)CCN3C(=O)N2CCCC2)n1 (stereo unspecified) | i | 0.57
28 | O=C(NCc1ccc(Br)cc1)c1cccc(Oc2cc(-c3ccc(F)cc3)ncn2)c1 | i | 1.33
29 | Cc1cc(=O)n2c(n1)NC(Nc1cccc(C)c1C)=NC2c1ccc(F)cc1 (stereo unspecified) | i | 0.65
30 | Cc1ccc(NC(=O)c2ccc(-c3noc(C4CCN(C(=O)c5ccccc5)CC4)n3)cc2)cc1C | i | -0.31
31 | CCCCNC(=O)c1ccc2c(c1)c(C)c(C)n2Cc1cccc(C)c1 | i | 0.89
32 | CCCc1c(C(=O)OCC)nnc2c(-c3ccc(Cl)cc3)c(C)nn12 | i | -0.57

# The results go on:
cpd | canonical_smiles | Anaer choline gr | Anaer choline gr early
33 | CC1=C(C(N)=O)C(c2cccc(Br)c2)n2ncnc2N1 (stereo unspecified) | i | 0.64
34 | NC(=O)C1CCN(C(=O)CN2c3ccc(Br)cc3-c3ccccc3S2(=O)=O)CC1 | i | 0.24
35 | Cc1c(-c2nsc(Nc3ccccc3)n2)nnn1-c1cccc(Cl)c1 | i | 1.91
36 | Cc1ccc(CC(=O)N2CCN(c3cc(-c4ccc(C)cc4)ncn3)CC2)cc1 | i | 0.34
37 | CCN(CC)c1cc(C)nc2nc(CN3CCC(N4CCCCC4)CC3)nn12 | i | 0.83
38 | Cn1c(SCc2ccccc2Cl)nnc1-c1sc2ncccc2c1N | i | -0.23
39 | CCCCNc1ncccc1-c1nc(-c2ccccc2)no1 | i | -0.02
40 | O=C(CCn1c(N2CCCCC2)nc2ccsc2c1=O)NCC1CC1 | i | 0.13

# (list continues)
cpd | canonical_smiles | Anaer choline gr | Anaer choline gr early
41 | Cc1cccc(NC(=O)Nc2ccc(CCc3nc4ccccc4[nH]3)cc2)c1 | i | 0.66
42 | O=C(CCCN1C(=O)c2ccccc2Sc2ncccc21)NCCc1ccc(Cl)cc1 | i | 0.84
43 | COc1ccc(-c2cc3n(n2)CCC(=O)N3Cc2ccc(C(=O)N3CCc4ccccc43)cc2)cc1 | i | -0.49
44 | Cc1ccc(-n2nc(N3CCN(C(=O)CN4C(=O)C(C)Oc5ccccc54)CC3)ccc2=O)cc1 (stereo unspecified) | i | 0.6
45 | CS(=O)(=O)c1nc2ccc(NS(=O)(=O)c3ccc(Br)s3)cc2s1 | i | -0.59
46 | O=S(=O)(NCc1nc2cccnc2n1Cc1ccccc1)c1ccc(F)c(Cl)c1 | i | 1.39
47 | CCN(CC)CCNc1cc(-c2ccccc2)ncn1 | i | 0.81
48 | CC[N+](C)(C)Cc1ccccc1Br | i | 0.53

# Following part.
cpd | canonical_smiles | Anaer choline gr | Anaer choline gr early
49 | CN(C)CCN(Cc1ccccc1)c1ccccn1 | i | 0.43&0.2&0.49
50 | O=C(NC1CCCc2ccccc21)c1ccc(-n2nc(OCc3cccc(F)c3)ccc2=O)cc1 (stereo unspecified) | i | -1.84
51 | Cc1ccccc1C(=O)N1CCc2c(c(C(=O)N3CCCC(C(=O)Nc4ccccc4)C3)nn2C)C1 (stereo unspecified) | i | -0.57
52 | CCOC(=O)c1cc(S(=O)(=O)N2CCCC2C(=O)NC2CC2)cn1C (stereo unspecified) | i | -0.23
53 | O=C1CCC(=O)N1c1nc2n(n1)C(c1ccc(F)cc1)C=C(c1ccccc1)N2 (stereo unspecified) | i | -0.36
54 | Cc1cccc(-c2noc(-c3ccccc3OCC(=O)Nc3nccs3)n2)c1 | i | 1.18
55 | CCC(CC)COC(=O)C1=C(C)NC(=O)CC1c1ccccc1Cl (stereo unspecified) | i | 0.04
56 | Cc1nn(-c2ccccc2)c2ccn(CC(=O)N3CCN(c4cccc(Cl)c4)CC3)c(=O)c12 | i | -0.64

# More results follow.
cpd | canonical_smiles | Anaer choline gr | Anaer choline gr early
57 | Cc1cc(-c2c(C)sc(C)c2S(=O)(=O)N2CCN(c3cccc(Cl)c3)CC2)n[nH]1 | i | -1.12
58 | CC/C=C\C/C=C\C/C=C\C/C=C\C/C=C\CCCC(=O)O | + | -3.07*
59 | O=C1NCCN1CCN1CCC(c2cn(-c3ccc(F)cc3)c3ccc(Cl)cc23)CC1 | i | -1.4
60 | N#CC1=CN(c2ccc3c(c2)CCC3)c2cc(Cl)ccc2S1(=O)=O | i | 0.58
61 | CCCC(=O)N(Cc1nc2nc(C)cc(C)n2n1)c1ccc(OCC)cc1 | i | -0.01
62 | Fc1ccc(-c2cn3c4ccccc4n(CCN4CCCC4)c3n2)cc1 | i | 0.3
63 | O=S(=O)(NCCCCCCc1ccccc1)c1cccc2c(Cl)cccc12 | i | 0.92
64 | Cc1cccc(-c2[nH]c(C(C)(C)C)nc2-c2ccc3nccnc3c2)n1 | i | 1

# Further records follow.
cpd | canonical_smiles | Anaer choline gr | Anaer choline gr early
65 | Cc1[nH]c(C(=O)N2CCC(CC(=O)NCc3ccc(Cl)cc3)CC2)c(C)c1C(=O)OC(C)C | i | 1.01
66 | Cc1cccc(-c2noc(-c3ccc(NC(=O)C4CC(=O)N(Cc5ccccc5)C4)cc3)n2)c1 (stereo unspecified) | i | 0.86
67 | O=C(CCC1CCCC1)Nc1ccc2nc(NC(=O)c3ccccc3)sc2c1 | i | 0.91
68 | CCNc1nc(N2CCN(C3CCCCC3)CC2)nc2c1cnn2C | i | 2
69 | COc1ccc(C(=O)Nc2ccccc2-c2nc(-c3cccc(C)c3)no2)cc1 | i | 0.42
70 | CCCCNC(=O)c1sc(-n2[nH]c(C)c(Cc3ccc(C)cc3)c2=O)nc1C | i | 0.56
71 | Cc1ccsc1CNc1ccc2[nH]c(=O)[nH]c2c1 | i | -1.14
72 | COc1ccc(C)cc1NC(=O)Cn1cc(C(=O)c2ccncc2)c(=O)c2cc(Cl)ccc21 | i | -1.26

# (cont.)
cpd | canonical_smiles | Anaer choline gr | Anaer choline gr early
73 | Cc1nc(-c2ccc(-n3cc(C(=O)NCc4ccc(Cl)cc4)c(C)n3)cc2)no1 | i | -0.44
74 | Cc1ccc(-c2noc(-c3cc(-c4ccc(C)cc4C)n[nH]3)n2)cc1 | i | -0.32
75 | CCCn1nnc(NCc2ccc(-c3ccc(Br)cc3)o2)n1 | i | -0.37
76 | Cc1[nH]c(C)c(S(=O)(=O)N2CCCC2)c1-c1nnc(C2CC2)o1 | i | -0.04
77 | CCOC(=O)C1CCN(C(=O)c2cn(-c3ccc(OC)cc3)c(=O)c3ccccc23)CC1 | i | 0.36
78 | Cc1ccc(S(=O)(=O)N(C)CCc2noc(C3CCCCC3)n2)c2nsnc12 | i | 0.34
79 | CC1c2cccn2-c2sc3c(c2CN1C(=O)Nc1ccc(Br)cc1)CCN(C)C3 (stereo unspecified) | i | 0.01
80 | O=C(Nc1cnc(N2CCCC2)nc1)c1ccsc1 | i | 0.72

# (listing goes on)
cpd | canonical_smiles | Anaer choline gr | Anaer choline gr early
81 | O=S(=O)(c1ccc(Br)cc1)N1CCN(c2ccc(N3CCCCC3)nn2)CC1 | i | 0.68
82 | Cc1cccc(NC(=O)CSc2cc(N3CCC(C)CC3)ncn2)c1 | i | 1.02
83 | COC(=O)Cc1cc(=O)n2c(nc3ccccc32)[nH]1 | i | -0.38
84 | CN(C)C(CNC(=O)c1cc(-c2ccccc2)on1)c1ccccc1 (stereo unspecified) | i | -0.44
85 | CCCS(=O)(=O)c1ncc(Cl)c(C(=O)Nc2sc3c(c2C(=O)OCC)CCCC3)n1 | i | -0.25
86 | CCCCn1c(=O)c2sccc2n2c(CCC(=O)N3CCN(C4CCCCC4)CC3)nnc12 | i | -0.24
87 | COc1cc(OC)c(NC(=O)N2CCN(c3ccc(=O)n(-c4ccccc4)n3)CC2)cc1Cl | i | 0.38
88 | CCOC(=O)c1cc2ccsc2n1CC(=O)Nc1cc(Cl)ccc1OC | i | 2.68

# Later entries:
cpd | canonical_smiles | Anaer choline gr | Anaer choline gr early
89 | O=C(Nc1ccc2c(c1)OCCO2)c1ccc(Nc2cc(-c3ccc(F)cc3)ncn2)cc1 | i | 0.56
90 | CC(NC(=O)c1cc(-c2cccnc2)nc2ccccc12)c1ccc2c(c1)OCCO2 (stereo unspecified) | i | -0.43
91 | Cc1ccc(S(=O)(=O)N2CCOc3ccc(COCc4ccccc4F)cc3C2)c(C)c1 | i | 0.67
92 | CC1CCC(NC(=O)C2CCCN2S(=O)(=O)c2ccc3c(c2)NC(=O)CO3)CC1 (stereo unspecified) | i | -0.19
93 | CCc1nnc(-c2ccc(S(=O)(=O)N3CCCCC3)o2)o1 | i | 0.68
94 | Cc1cc(=O)n2nc(N3CCC(C(=O)NCc4cccc(Cl)c4)CC3)sc2n1 | i | 0.19
95 | Cn1c(=O)oc2cc(S(=O)(=O)N3CCN(C(=O)C4CC(=O)N(c5ccccc5)C4)CC3)ccc21 (stereo unspecified) | i | -0.87
96 | COc1ccc(OC)c(S(=O)(=O)Nc2ccc(N3CCCC3)cc2C(=O)O)c1 | i | 0.95

# Next records follow:
cpd | canonical_smiles | Anaer choline gr | Anaer choline gr early
97 | Cc1cc(N2C(=O)CCS2(=O)=O)cc(C)c1S(=O)(=O)NC(C)C | i | -0.11
98 | Cc1ccc2c(Sc3ccc(Cl)cc3)c(C(=O)NCc3cccnc3)[nH]c2c1 | i | 1.22
99 | O=C(C1CCCN(c2ccc3cc(S(=O)(=O)N4CCCC4)ccc3n2)C1)N1CCN(c2ccccc2)CC1 (stereo unspecified) | i | 2.9
100 | O=C1NC(=O)/C(=C/c2ccc3nccnc3c2)S1 | i | 0.9
101 | CC1(C(=O)NC2CCCC2)Cn2c(cc3sccc32)C(=O)N1Cc1ccc(F)cc1 (stereo unspecified) | i | 0.64
102 | COc1ccc(CNC(=O)C2CCN(C(=O)c3oc4cc5sc(N(C)C)nc5cc4c3C)CC2)cc1 | i | 0.74
103 | O=C(NCC(c1cccnc1)N1CCN(c2ccccc2)CC1)c1ccc(F)cc1 (stereo unspecified) | i | 0.38
104 | O=C(CSCc1nc(-c2ccccc2)no1)N1CCc2ccccc21 | i | -0.51

# Next section:
cpd | canonical_smiles | Anaer choline gr | Anaer choline gr early
105 | CCc1nc2ccccc2n1CC(O)COc1ccc(C)cc1C (stereo unspecified) | i | 1.17
106 | COc1cc(NS(=O)(=O)c2cc(-c3cnn4c(C)cc(C)nc34)ccc2OC)cc(OC)c1 | i | -0.57
107 | COc1ccc(NS(=O)(=O)c2cc(N3C(=O)CCS3(=O)=O)ccc2OC)cc1 | i | -0.26
108 | CN(CCc1noc(-c2ccc(C(=O)N3CCOCC3)cc2)n1)C(=O)NC1CCCCC1 | i | -1.49
